# PINK1 expr mod – PINK1 expression modulation | PINK1 immunofluorescence, high-content cytometry, 24 h | Potency, µM (series often up to 76.6 µM), for the others: top-dose activation (PINK1 increase), hits mostly activators | 410,000 compounds, 0.2% hits | AID 624263; active = well fitted activation curve with a large enough effect; inconclusive = small, poorly fitted or top-dose-only effect; inactive = flat fitted curve, though single readings scatter; cell line not stated here;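 further: potency means the concentration at half of the fitted maximal effect; % of control where 0% means no effect; nearly all actives have a fitted effect of over 65% in size; a mitochondrial uncoupler was the plate control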
#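 Stable cell line, 250 cells/well, 12 h attachment; compounds pinned at 5 concentrations, 24 h; CCCP control. Fixed with nuclear dye, primary antibodies 12 h at 10 degrees C, secondary plus cell stain; laser-scanning cytometer read.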
# D2 potentiator – potentiates the human D2 dopamine receptor allosterically | P14416 | DiscoveRx D2 beta-arrestin cells, luminescence, 90 min; 100% = 57 uM dopamine signal | potentiation, % (test concentration not listed) | 360,000 compounds, 0.23% hits; active = potentiation of 50% or more; inconclusive = 30% to 50%; inactive = 30% or less;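 further: compound concentration not given in the record; tested on top of an EC20 dose of dopamine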
#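 D2 cells co-treated with compound plus 50 nM dopamine (EC20) for 90 min at 37 deg C to detect potentiation. Beta-arrestin recruitment was read as enzyme-fragment luminescence after 1 h at ambient temperature. Full response was set by 57 uM dopamine.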
# Six1-Eya2 blk – Six1/Eya2 interaction inhibition | Q15475+O00167 | AlphaScreen GST-Six1/His-Eya2 binding, biochemical; hits give low values; control for the full effect not named in the record | activity change, % (no concentration beside the values) | 360,000 compounds, 0.56% hits | AID 651725; in the data active = activity change below about -65%; inconclusive = about -30% to -65%; inactive = above about -30%; further: on the % scale 0 is the no-effect control and ±100 the full control effect
# Target sequence (O00167 whole entry, looked up): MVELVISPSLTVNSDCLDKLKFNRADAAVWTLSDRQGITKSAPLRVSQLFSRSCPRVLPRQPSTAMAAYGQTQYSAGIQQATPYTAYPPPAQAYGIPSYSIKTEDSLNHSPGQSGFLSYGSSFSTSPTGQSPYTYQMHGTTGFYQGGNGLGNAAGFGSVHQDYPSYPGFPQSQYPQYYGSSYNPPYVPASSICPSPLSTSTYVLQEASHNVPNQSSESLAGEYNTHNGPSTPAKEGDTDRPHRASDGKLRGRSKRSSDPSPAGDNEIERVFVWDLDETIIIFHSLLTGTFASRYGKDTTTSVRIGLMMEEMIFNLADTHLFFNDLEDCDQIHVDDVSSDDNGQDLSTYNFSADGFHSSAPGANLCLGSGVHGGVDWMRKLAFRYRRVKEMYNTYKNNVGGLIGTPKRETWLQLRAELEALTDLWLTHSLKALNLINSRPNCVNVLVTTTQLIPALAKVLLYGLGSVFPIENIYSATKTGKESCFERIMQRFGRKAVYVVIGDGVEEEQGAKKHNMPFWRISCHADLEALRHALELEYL
# Target sequence (Q15475 whole entry, looked up): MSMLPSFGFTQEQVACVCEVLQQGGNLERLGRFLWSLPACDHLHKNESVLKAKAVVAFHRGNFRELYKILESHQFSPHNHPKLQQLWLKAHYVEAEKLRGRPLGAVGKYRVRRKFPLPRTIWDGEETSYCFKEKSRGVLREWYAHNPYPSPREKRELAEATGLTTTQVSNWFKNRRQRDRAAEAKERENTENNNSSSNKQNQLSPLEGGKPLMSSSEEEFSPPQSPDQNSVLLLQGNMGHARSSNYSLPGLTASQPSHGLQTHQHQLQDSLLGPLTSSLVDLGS
#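 Homogeneous AlphaScreen proximity assay pairing GST-Six1 with His-tagged Eya2 (added as 5X mix: 250 nM and 500 nM) in 50 mM Tris pH 8.0, 300 mM NaCl, 1 mM TCEP. Glutathione donor and nickel acceptor beads; 1 h, 37 °C, dark.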
# TRPML1 agonist – agonists of human TRPML1 channel; TRPML1-expressing cells, Ca2+ dye fluorescence, FDSS; host cell line not named in the record; reference of the full effect not given here; 410,000 compounds, 0.12% hits; activation, % (no concentration beside the values); Q9GZU1; in the data active = activation above about 50%; inconclusive = about 30% to 50%; inactive = below about 30%; further: 0% is about no effect; the text of the record puts the active cut at 80%
#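 Kinetic FDSS Ca2+ read in Tet-induced TRPML1-DL cells (ABD Ca8 dye plus quencher, 45-90 min RT loading): baseline, then compound, then 110 s agonist window; EC80 agonist 54-4 at 4uM final added afterwards for a 110 s antagonist window.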
# TRPML1 inh – blocks the human TRPML1 channel. Q9GZU1. TRPML1-inducible cells, Ca2+ dye fluorescence, FDSS; hits give low values; inhibition of EC80 agonist-evoked calcium signal. activity change, negative = inhibition, % (no concentration beside the values). 390,000 compounds, 0.02% hits; in the data active means activity change below about -50%; inconclusive means about -30% to -50%; inactive means above about -30%;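 further: stimulus is agonist 54-4 at its EC80 concentration; on the % scale 0 is the no-effect control and ±100 the full control effect; compound concentration not given in the record; the text of the record puts the active cut at -80%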
#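 Tet-induced TRPML1-DL cells loaded with Ca8 no-wash calcium dye were read kinetically on FDSS. Compound addition was followed by EC80 agonist 54-4 (4 uM final); inhibition was read over 110 s.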
# D2 agonist – activates the human D2 dopamine receptor. activation, % (test concentration not listed). DiscoveRx PathHunter D2 beta-arrestin, luminescence, 90 min; 100% = 57 uM dopamine signal. P14416. 360,000 compounds, 0.084% hits. AID 624465; in the data active = activation above about 40%; inconclusive = about 15% to 40%; inactive = below about 15%; further: compound concentration not given in the record; the text of the record calls up to 30% inactive
#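 Agonist mode: compounds alone added to overnight-plated D2 PathHunter cells for 90 min at 37 C, with 57 uM final dopamine (EC100) defining full response. Beta-arrestin recruitment detected by chemiluminescent reagent, read after 1 h at ambient temperature.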
# * = called active by the depositor; ? = inconclusive; / = not tested or not shown; & = joins results of further samples; [ ] = remark or other dose.
SMILES,PINK1 expr mod,D2 potentiator,Six1-Eya2 blk,TRPML1 agonist,TRPML1 inh,D2 agonist
O=C(O)c1cc(-c2cccs2)nn1-c1ccc(F)cc1,2.3%,-5,-1,-0.3,2,0.9
COc1ccc(NC(=O)CCSc2ccc3ccccc3n2)cc1,0.4%,0,4,0.7,-18,-2.6
CN(C(=O)C1CCCN(S(=O)(=O)c2cccc([N+](=O)[O-])c2)C1)C1CCS(=O)(=O)C1 (configuration not stated),-0.7%,-10,13,0.2,-1,2.4
CCOc1ccc(S(=O)(=O)NC(Cc2c[nH]c3ccccc23)C(=O)O)cc1 (configuration not stated),1.1%,1,1,0.6,-13,-4.8
CCCOc1ccc(/C(O)=C2/C(=O)C(=O)N(c3cc(C)on3)C2c2ccc(C(=O)OC)cc2)cc1 (configuration not stated),0.0%,-5,-5,0.4,5,-1.4
COC(=O)c1ccc(C(=O)OC)c(NS(=O)(=O)c2ccc(NC(C)=O)cc2)c1,2.0%[38.3 µM],6,-1,0.1,-9,-1.7
Cn1ncc(Br)c1C(=O)N/N=C/c1ccc(OS(=O)(=O)c2ccccc2)cc1,-1.2%,-2,-6,0.0,34,-2.0
O=C(Cn1cnc2cc(Cl)ccc2c1=O)Nc1ccc2c(c1)OCO2,-3.3%,6,6,-0.9,-5,-1.2
Cc1ccc(N2C(=O)CCSC23C(=O)N(Cc2ccc(F)cc2)c2ccccc23)cc1 (configuration not stated),-0.7%,/,/,3.1,-19,/
O=C(CNS(=O)(=O)/C=C/c1ccccc1)OCC(=O)N1CCC(Cc2ccccc2)CC1,1.6%,-5,-3,3.1,37,0.9
Cc1cc(CN(C)Cc2cn(C)nc2-c2ccc(Oc3ccccc3)cc2)on1,-0.7%,-17,-4,1.3,41,-4.0
O=C(NCCCc1ccccc1)N1CCOCC1,0.2%,0,3,0.3,-3,0.4
Cc1c(-c2ccccc2)[n+](=O)c(-c2ccc(Cl)cc2)c(C)n1[O-],2.6%,-6,17,-0.8,3,1.5
COc1ccc(S(=O)(=O)n2nc(C)c(S(=O)(=O)N3CCC(C)CC3)c2C)cc1C,2.2%,/,/,-0.7,-10,/
O=C(CSCc1ccc(F)cc1)NCc1cccs1,2.3%,-9,-7,-0.5,-5,-4.1
CC12CN3CC(C)(CN(C1)C3c1ccc(OCc3ccccc3)cc1)C2=O (configuration not stated),0.8%,/,/,0.0,45,/
COc1cc(NC(=O)c2ccc(C)cc2C)ccc1NC(=O)c1cccs1,7.9%,-12,-14,0.5,5,1.6
COc1ccccc1-n1c(C)nnc1SCC(=O)Nc1cc(C)cc(C)c1,1.0%,3,2,0.2,-27,-0.3
O=C(NCc1ccccc1)c1cccc(OCC(=O)N2CCN(C(=O)c3ccco3)CC2)c1,-3.3%,-7,-3,-1.3,-8,-1.2
CN(C)c1ccc(/C=C(\NC(=O)c2ccccc2)C(=O)N/N=C/c2ccc(C(=O)O)cc2)cc1,-1.5%,-5,-7,-0.3,-1,-4.4
O=C(CSc1ncc(S(=O)(=O)c2ccc(Cl)cc2)c(=O)[nH]1)Nc1cccc(C(F)(F)F)c1,-0.3%,/,/,0.9,-2,/
CCCS(=O)(=O)N1CC(=O)N(c2ccc(Cl)cc2)C(C)(C(=O)NC2CCCC2)C1 (configuration not stated),1.2%,/,/,0.1,2,/
CCC1CCCCN1CCCNC(=O)COc1cc(=O)n(C)c2ccccc12 (configuration not stated),/,-9,-5,-0.4,8,-0.4
CCCn1cnc2scc(-c3ccc(C)c(C)c3)c2c1=O,-0.1%,-1,10,0.9,8,-0.6
O=C(NCCCNC(=O)c1ccc(Cl)cc1Cl)c1ccccn1,-0.8%,-9,2,-0.2,-19,-5.0
Cc1ccc(S(=O)(=O)N(C)C)cc1NC(=S)N(CCC#N)Cc1cccnc1,-1.8%,-16,7,0.4,8,-4.6
O=C(Nc1cc(C(F)(F)F)ccc1Cl)c1ccncc1,-1.0%,2,5,-0.5,-17,-3.2
CC(=O)Nc1ccc(S(=O)(=O)N2CCN=C2C)cc1,-1.9%,12,2,3.2,24,-0.6
Cc1ccc(C)c(CN2C(=O)c3ccccc3Sc3ccc(C(=O)NCc4cccs4)cc32)c1,0.1%,/,/,2.4,-9,/
CC1CCCC(NC(=O)COC(=O)c2ccc([N+](=O)[O-])s2)C1C (configuration not stated),-2.9%,12,-6,0.7,15,3.4
O=C(O)CCC(=O)Nc1ccccc1C(=O)NCCc1ccccc1,1.5%,-8,4,-0.4,6,-1.7
Cc1ccc(Cn2nnc3c(=O)n(CC(=O)NCc4ccco4)cnc32)cc1,5.2%,-12,0,-0.3,28,-4.0
CCOC(=O)c1cccc(N2C(N)=NC(N)=NC2(C)C)c1,4.7%,-9,0,-0.6,8,-3.6
C=CCOn1c(=O)c(-c2cc3ccccc3o2)[n+]([O-])c2ccccc21,?,-6,28,4.4,2,-1.8
O=C(Nc1c(-c2ccccc2)nc2ncccn12)c1cc2ccccc2oc1=O,4.7%,-1,-6,-0.6,-17,-1.3
Cc1nc2nc(-c3ccc(Cl)cc3)[nH]n2c(=O)c1Cc1ccccc1,0.0%,-6,5,-1.1,45,-1.0
CC(C)(C)C(=O)c1cn(CC(=O)NCc2ccc3c(c2)OCO3)c2ccccc12,-1.2%,-3,-3,0.3,0,-2.4
CC(OC(=O)CC(C)c1ccccc1)C(=O)Nc1ccc(Cl)cn1 (configuration not stated),0.9%,-15,16,-0.2,3,-3.6
c1ccc2c(c1)Nc1ccncc1S2,-3.9%,-23,1,-0.1,5,-0.3
O=C1c2ccccc2C(=O)N1CCCc1nc(-c2cccnc2)no1,-0.4%,-11,0,0.0,7,-4.5
Cc1ccccc1C(=O)NC(CC(C)C)C(=O)NCC(C)(C)N1CCOCC1 (configuration not stated),-1.3%,-5,11,2.1,-28,-0.1
CC1(C)SC2c3ccccc3C(=O)N2[C@@H]1C(=O)NCc1ccco1 (some centres not stated),-2.5%,-10,0,-0.7,6,-4.3
CN(C)S(=O)(=O)c1cccc(NC(=O)COC(=O)CNC(=O)c2cccc([N+](=O)[O-])c2)c1,0.4%,-10,7,-0.2,-7,2.3
Cc1ccc(NS(=O)(=O)c2ccc(C)c(NC(=O)COc3ccc4ccccc4c3)c2)c(C)c1,2.8%,-2,-16,0.3,-5,2.3
CN(Cc1ccccc1)S(=O)(=O)c1nnc(NC(=O)c2cccc(Cl)c2)s1,1.9%,/,/,0.6,22,/
CC(=O)N1CCCC1(C(=O)O)c1ccccc1 (configuration not stated),6.1%,1,0,0.2,-3,-4.7
O=C(N/N=C/c1ccc(O)c(O)c1O)/C(=C/c1ccc([N+](=O)[O-])cc1)NC(=O)c1ccccc1,-1.0%,19,-90*,1.1,6,14
Cc1cn(-c2cc(C(=O)Nc3ccc(C)c(NC(=O)N4CCNC4=O)c3)cc(C(F)(F)F)c2)cn1,-0.6%&1.6%,4&1,7&2,0.4&-0.4,5&-12,-3.9&-1.6
Cc1cc(-c2n[nH]c(=S)n2/N=C/C=C/c2ccccc2)n[nH]1,0.9%,-16,1,-0.4,-6,1.0
COc1cc(NC(=O)COC(=O)c2ccc([N+](=O)[O-])s2)cc(OC)c1OC,-0.4%,5,-3,0.1,21,?
CCCNC(=O)NC(=O)c1cnccc1C(F)(F)F,1.0%,0,0,0.1,2,-1.5
CCC1(C)NC(=O)N(CC(=O)Nc2cc(C)on2)C1=O (configuration not stated),2.4%,-15,7,0.3,-10,-1.3
CC(C)OC(=O)c1c(N)sc2c1CCCC2,17%[38.3 µM],-2,-4,3.0,-20,0.2
CSc1nc(C)cc(/C=C\c2ccccc2)c1C#N,25%[38.3 µM],-15,25,0.6,52,-4.5
COc1ccc2c(c1)CCc1cn3ncc(C#N)c3nc1-2,0.3%,3,-18,0.3,-17,-3.5
COC(=O)/C=C1/N/C(=N\c2nc(C)cc(C)n2)N(c2ccccc2)C1=O,-0.5%,-6,1,-0.8,-2,-5.0
CC(C)(C)OC(=O)NCc1ccc(CNC(=O)c2ncn(Cc3ccccc3)c2C(=O)NCc2ccc(CNC(=O)OC(C)(C)C)cc2)cc1,0.3%,-8,3,-0.6,-2,0.7
Cc1nnc(N2CCC(C(=O)Nc3ccc(F)cc3)CC2)c2nn(-c3ccc(Cl)cc3)c(C)c12,-0.5%,/,/,0.2,-3,/
COc1ccc(-c2noc(CSc3nnc(-c4ccncc4)n3-c3ccccc3)n2)cc1,0.9%,/,/,-0.6,2,/
Cc1cccc(N2CCN(C(=O)C3CCN(S(=O)(=O)c4cnc[nH]4)CC3)CC2)c1C,-1.0%,-8,-1,-0.5,-3,-0.8

# The list goes on.
SMILES,PINK1 expr mod,D2 potentiator,Six1-Eya2 blk,TRPML1 agonist,TRPML1 inh,D2 agonist
CCc1ccccc1NC(=O)c1ccc(F)c(S(=O)(=O)NC2CCCCCC2)c1,4.3%,/,/,2.4,-2,/
CCCNc1c(NC(C)=O)c(=O)oc2ccccc12,-1.1%,0,4,0.0,7,0.4
COc1cc(C(=O)ON=C2C(C)=CC(=O)C=C2C)cc(OC)c1OC,5.0%[38.3 µM],1,-1,-1.0,6,-0.6
CC1CC(C)CN(C(=O)CNC(=O)Cn2ccc3ccccc3c2=O)C1 (configuration not stated),2.4%,4,6,-1.1,2,2.3
Cc1ccc(C(=O)N2CCN(S(C)(=O)=O)C2)cc1,-1.7%,-15,5,-0.1,-11,-0.6
CCCCNC(=S)N/N=C1\CCCCc2ccccc21,1.6%,-6,-15,2.0,-5,-6.6
O=C(C(=O)N1CCCc2ccccc21)N1CCCc2ccccc21,3.8%,-5,8,0.2,3,-5.3
CN=C1c2cc3cc(OC)ccc3n2CCN1Cc1ccccc1,7.8%,-37,-5,0.4,-5,3.6
CN(C(=O)NC1CCCCC1)c1ccccc1,-2.4%,-13,5,0.2,-19,-1.5
COc1nc(Nc2ccc([N+](=O)[O-])cc2)nc(NC(C)C)n1,11%,6,-13,-0.8,-17,-3.4

# Rows are unselected. Share with any hit: about 1%.
